RecA splice inh = blocks M. tuberculosis RecA intein splicing; AID 2221; 290,000 compounds, 0.75% hits; cell-free RecA intein splicing, fluorescence; inhibition, %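 (about 9 µM by stock and volumes)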; P9WHJ3; in the data active = inhibition above about 30%; inconclusive = no clear call, values can overlap the other calls;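 also: 0% = vehicle wells and 100% = reference inhibitor control wells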
Target sequence (P9WHJ3 whole entry, looked up, canonical isoform): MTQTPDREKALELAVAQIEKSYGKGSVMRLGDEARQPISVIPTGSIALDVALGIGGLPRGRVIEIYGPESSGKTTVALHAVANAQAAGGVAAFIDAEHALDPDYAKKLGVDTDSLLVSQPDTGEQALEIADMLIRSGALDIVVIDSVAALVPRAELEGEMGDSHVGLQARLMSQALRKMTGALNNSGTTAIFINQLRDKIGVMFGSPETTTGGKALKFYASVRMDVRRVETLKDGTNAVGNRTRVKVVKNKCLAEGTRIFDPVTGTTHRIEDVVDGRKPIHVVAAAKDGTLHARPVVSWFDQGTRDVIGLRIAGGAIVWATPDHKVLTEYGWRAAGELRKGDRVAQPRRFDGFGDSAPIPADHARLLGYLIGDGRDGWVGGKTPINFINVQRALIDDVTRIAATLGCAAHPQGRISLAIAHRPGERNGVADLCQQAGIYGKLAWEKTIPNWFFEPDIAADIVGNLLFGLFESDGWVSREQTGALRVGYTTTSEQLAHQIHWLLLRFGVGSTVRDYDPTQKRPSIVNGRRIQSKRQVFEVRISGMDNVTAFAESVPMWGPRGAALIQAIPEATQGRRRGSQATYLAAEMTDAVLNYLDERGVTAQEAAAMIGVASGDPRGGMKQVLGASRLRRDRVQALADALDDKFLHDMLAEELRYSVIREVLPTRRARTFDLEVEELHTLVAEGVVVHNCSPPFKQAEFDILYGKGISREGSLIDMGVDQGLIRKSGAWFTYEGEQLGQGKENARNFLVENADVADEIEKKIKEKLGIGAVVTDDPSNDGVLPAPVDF
Arbovirus anti = antivirals against arbovirus infection; arbovirus infection cell-based antiviral screen; inhibition, % at 10 µM; 200,000 compounds, 0.37% hits;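 active = inhibition from about 30%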;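 also: bluetongue infection of BSR cells; cell survival read as ATP light after 72 h; 0% = infected wells without compound and 100% = uninfected wells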
YopH PTP inh = YopH (Yersinia) phosphatase inhibition; 140,000 compounds, 0.16% hits; AID 898; inhibition, %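 (about 10 µM by stock and volumes)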; fluorescence Ex485/Em525;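 active = inhibition of 50% or more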;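 also: controls were vehicle for no effect and minimum signal wells for full effect; inactives centre near -20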
Mtb betalactam = beta-lactam sensitization of Mtb H37Rv; 330,000 compounds, 0.27% hits; inhibition, % at 25 µM; M. tuberculosis H37Rv growth with meropenem, percent inhibition; hits of this screen are not shown here;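 active = about 74% or more and at least 40 points above the plate without the antibiotic, then above 30% in a dose series; inconclusive = first-round hits that could not be retested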;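 also: growth measured after seven days incubation then overnight dye step; 0% = bacteria only wells and 100% = bacteria with antibiotic; twin plates without the antibiotic show which effects depend on it; some results filed as inactive read as strong as hits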
Mtb H37Rv = M. tuberculosis H37Rv growth inhibitors, H37Rv strain (AID 1626); M. tuberculosis H37Rv growth inhibition; higher % means a stronger effect; inhibition, % at 10 µM; hits with a dose series show IC50 in µM; 220,000 compounds, 0.95% hits;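 active = confirmed in a dose series; inconclusive = inhibition above 80% but not taken into the dose series; inactive = below 80% or under 30% at every dose of the series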;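 also: bacteria incubated seven days before Alamar blue readout; 0% = bacteria only wells and 100% = bacteria with antibiotic wells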
Arbovirus anti repeat = further read-out of Arbovirus anti, marked with its call; inhibition, %; measured here: 10K subset replicate screen; many hits read low in the repeat;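 first of two repeat runs on a subset; 0% = infected and 100% = uninfected wells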
* hit, by the source's call; ? = inconclusive; . = no result given.

SMILES | RecA splice inh | Arbovirus anti | YopH PTP inh | Mtb betalactam | Mtb H37Rv | others
CCN(C(=O)COC(=O)/C=C/c1ccc(S(=O)(=O)N2CCc3ccccc32)cc1)C1CCS(=O)(=O)C1 (stereo not drawn) | 3.0 | 0 | . | -4 | -3%
CCS(=O)(=O)N1CCN(C2Cc3ccccc3C2)CC1 | -0.3 | -4 | -15 | -8 | -4%
COc1ccc(C2/C=C\CN(C(=O)CC(C)(C)C)CC(=O)N2Cc2ccc(F)cc2)cc1 (stereo not drawn) | 2.0 | . | . | -8 | 1%
CCC(C)C1NC(=O)C(C(C)=O)=C1O (stereo not drawn) | 0.9 | . | . | 3 | -9%
Cc1ccc(O)c(C(=O)/C=C/c2ccc3c(c2)OCCO3)c1 | -2.0 | -11 | . | 3 | 4%
CC(C)Cn1c(N)c(C(=O)COC(=O)c2cc(C(F)(F)F)nc3ccccc23)c(=O)n(C)c1=O | . | 3 | -15 | 80 | 8%
CC(=O)Nc1ccc(NC(=O)CSc2nc(N)c(NC(=O)c3ccccc3F)c(=O)[nH]2)cc1 | 3.0 | . | . | -5 | .
Cc1oc(-c2ccc(Cl)cc2)cc1C(=O)/C(C#N)=C/Nc1cccc(OC(F)(F)F)c1 | 0.1 | . | . | 19 | -12%
Cc1ccc(C(=O)Nc2nc3ccc(Cl)cc3s2)o1 | 0.5 | . | . | 4 | .
COc1ccc(C2CC(c3cccs3)=NN2S(C)(=O)=O)cc1 (stereo not drawn) | -0.6 | . | . | -6 | -6%
Cc1c(-c2cccc(NC(=O)c3cccs3)c2)nc2ncccn12 | -12 | -4 | -22 | 4 | 6%
Cc1nn(-c2ccccc2)c(Cl)c1/C=N/NC(=O)c1ccccc1NS(=O)(=O)c1cccs1 | -3.7 | 2 | -25 | 4 | 0%
CN(C)NC(=O)c1ccc([N+](=O)[O-])s1 | . | . | . | -4 | -7%
CCOc1ccccc1N/C(=N/c1nc(C)cc(C)n1)NC(=O)Nc1ccc(Cl)c(Cl)c1 | 4.5 | 6 | 3 | 10 | 54%
CCOC(=O)CSc1nnc(CSc2nc(N)c3c(C)c(C)sc3n2)n1-c1ccccc1 | 3.0 | -2 | -17 | -2 | 0% | Arbovirus anti repeat=-3
Cc1ccc(-n2ncc3c(SCC(=O)NNC(=O)C(C)C)ncnc32)cc1 | -1.4 | . | . | 4 | .
O=[N+]([O-])c1cccc(S(=O)(=O)NC2CC3CCC2C3)c1 (stereo not drawn) | -2.0 | . | . | 3 | .
COCCNC(=O)c1cc2ncc(Br)cn2n1 | -1.2 | 9 | -9 | -1 | -7%
CCn1c(O)c(N=Nc2ccc3ccccc3n2)c2ccccc21 | 1.3 | . | . | -6 | -9%
O=[N+]([O-])c1ccc(S(=O)(=O)Nc2ccccn2)cc1 | 3.6 | . | . | -6 | .
O=C(CCNC(=O)c1ccc(Br)cc1)NCC1CCCO1 (stereo not drawn) | -3.4 | . | . | 4 | .
COc1cc(/C=C2/C(=N)N3C=CSC3=NC2=O)ccc1OCCOc1ccc(NC(C)=O)cc1 | -1.4 | 1 | . | 0 | 1%
CC(C)c1cc(Br)c(NC(=O)Nc2cccnc2)c(Br)c1 | 3.9 | . | . | 10 | .
CC1COC2N=C(N[N+](=O)[O-])NC2O1 (stereo not drawn) | -2.4 | 3 | . | -5 | -4%
CCCOCC1CC2(SC(=Nc3ccc(C)cc3)NC2=O)C(=O)O1 (stereo not drawn) | -1.9 | 8 | -27 | 3 | 3%
O=C1CC(SCCc2nc3ccccc3[nH]2)C(=O)N1c1ccc(F)c(Cl)c1 (stereo not drawn) | 4.8 | . | -16 | -15 | -3%
N#CC1=C(SCc2ccccc2)NC(=O)CC1c1ccc(O)cc1 (stereo not drawn) | 1.4 | -4 | -1 | -16 | 0% | Arbovirus anti repeat=4
CC(C)OC(=O)CC(NC(=O)OC(C)(C)C)c1ccccc1 (stereo not drawn) | 0.5 | 3 | -20 | -13 | 5%
CSc1nc(C)[nH]c(=O)c1C#N | -0.4 | . | . | 4 | 8%
COc1ccc(-n2ncc(C(C)NS(=O)(=O)c3cccs3)c2C)cc1 (stereo not drawn) | 1.9 | . | . | 6 | .
CCOC(=O)c1c(C)[nH]c(C(=O)NNC(=O)c2ccccc2)c1C | 2.4 | 2 | 5 | 1 | -2%
C=CCN1C(=O)c2ccc(C(=O)N3CCC(C(N)=O)CC3)cc2C1=O | -1.1 | . | . | -9 | .
CC(C)c1nnc(NC(=O)CC(=O)Nc2ccccc2C(=O)O)s1 | -1.1 | 9 | -49 | -3 | -2%
CC(=O)N1CCN(C(=O)c2cccc(S(=O)(=O)NCc3ccccc3)c2)CC1 | -4.2 | . | . | -6 | .
CC(NCc1ccc(F)cc1)C(=O)Nc1cc(S(=O)(=O)N2CCCCC2)ccc1Cl (stereo not drawn) | 2.1 | 13 | . | -6 | 7%
COc1ccc(N2CCN(C(=S)NCc3ccc(C)cc3)CC2)cc1 | -1.8 | -4 | . | -2 | 0%
COc1ccc(CC(=O)Nc2ccccc2NC(=O)Cc2ccc(OC)cc2)cc1 | -3.3 | . | . | -1 | .
Cc1cccc(OCC2=NS(=O)(=O)c3ccccc3N2)c1 | -1.4 | 11 | -41 | 3 | -21%
Cc1nn(CCC(=O)NCc2ccc(N(C)C)cc2)c(=O)c2nn(-c3ccccc3)c(C)c12 | -3.4 | . | . | 2 | .
CC1(C)CC(=O)C(C=Nc2ccccc2Sc2ccccc2)=C(O)C1 | 4.3 | -3 | -27 | 6 | 3%

As a working copy, part of the list above.
SMILES | RecA splice inh | Arbovirus anti | YopH PTP inh | Mtb betalactam | Mtb H37Rv | others
CCOC(=O)c1c(C)[nH]c(C(=O)NNC(=O)c2ccccc2)c1C | 2.4 | 2 | 5 | 1 | -2%
C=CCN1C(=O)c2ccc(C(=O)N3CCC(C(N)=O)CC3)cc2C1=O | -1.1 | . | . | -9 | .
CC(C)c1nnc(NC(=O)CC(=O)Nc2ccccc2C(=O)O)s1 | -1.1 | 9 | -49 | -3 | -2%

Next structures follow:
SMILES | RecA splice inh | Arbovirus anti | YopH PTP inh | Mtb betalactam | Mtb H37Rv | others
COc1ccccc1C(C)NC(=O)Cc1ccc(S(=O)(=O)N2CCOCC2)s1 (stereo not drawn) | 1.8 | . | . | -11 | .
O=C(Nc1ccc2c(c1)OCO2)N1CCN(c2ccccc2Cl)CC1 | -5.9 | -14 | -1 | -2 | -5%
COc1ccc(OCC(=O)NCCCCCCNC(=O)COc2ccc(OC)cc2)cc1 | 4.1 | . | . | -10 | .
Cc1ccc(S(=O)(=O)[N-]c2nc3ccccc3nc2-n2cc[n+](Cc3ccccc3)c2)cc1 | -29 | . | . | -5 | -1%
Cn1cc(Br)c(C(=O)Nc2sc3c(c2C(N)=O)CCC3)n1 | 2.2 | 5 | -21 | -13 | -10%
Cc1cccc(N2CCN(C(=O)c3ccc(CS(=O)(=O)c4ccccc4C)o3)CC2C)c1 (stereo not drawn) | . | -15 | -16 | 3 | 1%
O=C(O)c1cccc(S(=O)(=O)Nc2ccccc2N2CCOCC2)c1 | -2.3 | . | . | 1 | -2%
CN(C)CCCNCC(=O)Nc1ccc(Cl)cc1C(=O)c1ccccc1 | -9.7 | 6 | . | -1 | 4%
O=C(CN1C(=O)c2ccccc2C1=O)NCC(=O)OCC(=O)c1cccc([N+](=O)[O-])c1 | 1.6 | -3 | . | 1 | -1%
CCC(=O)N1CCc2cc(S(=O)(=O)NCCCN3CCN(Cc4ccccc4)CC3)ccc21 | -0.8 | 4 | -26 | -3 | .
Cn1cccc1Cc1nnc(SCC(=O)NC2CCCCC2)n1-c1ccc(F)cc1 | 2.5 | -1 | -41 | -4 | -8% | Arbovirus anti repeat=-9
CC1CCCN(C(=O)CN2C(=O)c3ccccc3C2=O)C1 (stereo not drawn) | -4.9 | 11 | -26 | -9 | -4% | Arbovirus anti repeat=-3
CC12CCCCC1N(O)C(=O)C(=O)N2O (stereo not drawn) | -1.3 | -5 | -19 | -1 | 5%
O=c1c2ccccc2nc2n1CCCCN2 | 1.4 | 7 | -6 | -6 | 0%
CC1CCC2C(=O)N(c3cccc(C(=O)Nc4ccccc4Cl)c3)C(=O)C2C1 (stereo not drawn) | -0.5 | . | . | -18 | .
COc1ccc(NC(=O)CSc2nnc(-c3ccco3)n2N)cc1Cl | -1.3 | . | . | 38 | .
Cc1cc(NC(=O)CCC(=O)N(c2ccc(F)cc2)C(C(=O)NC2CCCC2)c2ccncc2)no1 (stereo not drawn) | -0.2 | -5 | 18 | -3 | .
Cc1[nH]c2ccccc2c1/C=N/NS(=O)(=O)c1ccccc1 | -5.9 | 9 | . | -1 | 4%
Cc1ccc(-c2ccc(CCC(=O)O)o2)cc1 | 1.2 | 7 | -17 | 57 | -7%
CCCn1cc(CN2CCC(n3nccc3NC(=O)c3ccccc3)CC2)c(C)n1 | 3.8 | . | . | ? | .

6 entries from above, arranged by heavy-atom count, largest number first.
SMILES | RecA splice inh | Arbovirus anti | YopH PTP inh | Mtb betalactam | Mtb H37Rv | others
Cc1cc(NC(=O)CCC(=O)N(c2ccc(F)cc2)C(C(=O)NC2CCCC2)c2ccncc2)no1 (stereo not drawn) | -0.2 | -5 | 18 | -3 | .
CCCn1cc(CN2CCC(n3nccc3NC(=O)c3ccccc3)CC2)c(C)n1 | 3.8 | . | . | ? | .
Cc1[nH]c2ccccc2c1/C=N/NS(=O)(=O)c1ccccc1 | -5.9 | 9 | . | -1 | 4%
CC1CCCN(C(=O)CN2C(=O)c3ccccc3C2=O)C1 (stereo not drawn) | -4.9 | 11 | -26 | -9 | -4% | Arbovirus anti repeat=-3
Cc1ccc(-c2ccc(CCC(=O)O)o2)cc1 | 1.2 | 7 | -17 | 57 | -7%
O=c1c2ccccc2nc2n1CCCCN2 | 1.4 | 7 | -6 | -6 | 0%

Further entries:
SMILES | RecA splice inh | Arbovirus anti | YopH PTP inh | Mtb betalactam | Mtb H37Rv | others
Fc1ccc(-c2csc(NC3=NCCC3)n2)cc1 | . | 5 | . | 10 | 2%
CN(Cc1cccnc1)C(=O)CC1C(=O)NCCN1CC(c1ccccc1)c1ccccc1 (stereo not drawn) | 0.5 | -3 | . | -5 | -3%
O=C(c1cccs1)N(CCO)Cc1cc2cc3c(cc2[nH]c1=O)OCCO3 | 0.1 | 1 | -13 | . | -18%
CCc1ccc(NC(=O)N(Cc2cccnc2)Cc2ccco2)cc1 | 0.6 | -4 | -13 | -9 | -14%
Nc1nnc(SCC(=O)N2CCN(c3ccccc3)CC2)s1 | -0.2 | 4 | -11 | ? | -7%
Cc1ccc(S(=O)(=O)N2CCN(C)CC2)cc1C | 1.4 | . | . | -7 | .
CCCCCC1CCC(c2ccc(/C(N)=N/O)cc2)CC1 (stereo not drawn) | 18 | . | . | -6 | 8%
O=C(Nc1ccc(N2CCOCC2)cc1)c1cc(F)c(F)cc1Cl | -1.9 | -1 | -30 | -3 | -6%
COC(=O)CN1C(c2ccc(Cl)cc2)=Nc2ccc(Cl)cc2C1c1ccccc1 (stereo not drawn) | 32* | -13 | -12 | 94 | 79%
O=C(NCc1ccccn1)c1cn(Cc2ccccc2)nn1 | -0.4 | 4 | 15 | -7 | 4%
C=C(C)c1ccc(C(C)(C)NC(=O)N2CCN(C)CC2)cc1 | -2.1 | 0 | -7 | -2 | 8%
CCC(C)NC(=O)c1cc2cc3ccc(OC)cc3nc2o1 (stereo not drawn) | -7.9 | . | . | 5 | .
CCCc1cc(=O)[nH]c(SCC(=O)c2ccc(S(=O)(=O)N3CCCC3)cc2)n1 | 1.0 | 10 | -35 | -6 | -8%
Cc1ccccc1NC(=O)c1ccc2c(c1)CCN2S(C)(=O)=O | 1.1 | . | . | -4 | .
NC(=O)Cn1cc(/C=N/NC(=O)c2ccc(Cn3cc(Cl)cn3)o2)c(-c2ccccc2)n1 | -0.4 | . | . | -2 | .
COc1cccc(CNCc2ccccc2OC)c1 | -1.6 | . | . | -2 | .
CCOC(=O)C(=O)N1CCN(CC)CC1 | 0.0 | -1 | -27 | -4 | 0%
CC(C)(C)NC(=O)C(c1ccncc1)N(C(=O)Cn1nnc(-c2ccc(F)cc2)n1)c1ccccc1 (stereo not drawn) | -2.4 | -2 | . | 2 | -3%
O=C(O)CCCCC1SCC2NC(=O)NC21 (stereo not drawn) | 0.1 | -3 | -9 | -1 | -6%
O=C(CSc1ncc(C(=O)O)n1-c1ccc(F)cc1)NCc1ccc2c(c1)OCO2 | -2.4 | 3 | . | 0 | 4%

Screening data (PubChem BioAssay)

These rows are one share of the data; rates above refer to the full screens.
